Screens from PubChem BioAssay.
Polio RdRp inh: poliovirus RdRp elongation inhibitors, primary screen, biochemical, fluorescence polarization, total intensity; % elongation, % (compound at 16.7 µg/mL); actives 0.66% (n = 150,000); AID 588519, 2011; Genome polyprotein (Poliovirus type 1 (strain Mahoney)), P03300; poliovirus polymerase elongation; active compounds read low; in the data active means % elongation below about 90%; further: some results filed as inactive read as strong as hits
Target sequence (P03300 1749-2209 limits assumed): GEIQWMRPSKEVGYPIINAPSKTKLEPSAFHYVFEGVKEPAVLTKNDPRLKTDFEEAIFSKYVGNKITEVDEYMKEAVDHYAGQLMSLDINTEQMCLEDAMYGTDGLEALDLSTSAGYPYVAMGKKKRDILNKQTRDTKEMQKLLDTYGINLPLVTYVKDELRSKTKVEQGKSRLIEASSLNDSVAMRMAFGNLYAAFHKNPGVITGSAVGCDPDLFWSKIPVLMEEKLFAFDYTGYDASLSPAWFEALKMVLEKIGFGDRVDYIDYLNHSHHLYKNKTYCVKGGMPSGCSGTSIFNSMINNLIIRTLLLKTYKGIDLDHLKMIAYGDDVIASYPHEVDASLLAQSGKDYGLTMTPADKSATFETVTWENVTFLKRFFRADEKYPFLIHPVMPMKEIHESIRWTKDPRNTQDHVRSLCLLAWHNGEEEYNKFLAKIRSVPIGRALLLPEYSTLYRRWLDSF
Polio RdRp inh intensity: recorded beside Polio RdRp inh, whose call it bears; % elongation; measured here: total intensity read-out; formula for this scale not given here;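 total fluorescence in place of polarization; lower means less elongation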
Numbers without * were called inactive. This is a subset. The share of hits here may be higher or lower than overall.

compound	Polio RdRp inh	Polio RdRp inh intensity
COc1ccc(S(=O)(=O)Cc2ccc(C(=O)NC3CCCCC3)o2)cc1	100	95
CCOc1ccccc1OCCCCn1c(-c2ccc(Cl)cc2)nc2ccccc2c1=O	104	104
COC(=O)c1ccc(Cn2c(SCC(=O)NCc3ccccc3)nc3ccccc32)cc1	108	106
CCc1cccc(C)c1Nc1c(-c2cccc(O)c2)nc2nc(C)cc(C)n12	111	116
CCOc1ccc(CC(=O)Nc2c(C(=O)c3ccc(F)cc3)oc3ccccc23)cc1OCC	107	111
CCc1ccc(Nc2nn(-c3ccc(OC(F)(F)F)cc3)nc2C(C)=O)cc1	110	115
O=C1CCSC2(C(=O)N(Cc3ccc(F)cc3)c3ccccc32)N1c1cccc(F)c1 (stereo not given)	107	111
Cc1c(C(=O)N(C)c2ccccc2)sc2nc(-c3ccc(F)cc3)cn12	106	108
CC(Sc1nc(=O)cc(N)n1CCc1ccccc1)C(=O)Nc1ccccc1C#N (stereo not given)	104	107
O=C(Nc1ccc(-n2nncc2-c2ccccc2)cc1)c1cccc(F)c1	105	99
COc1ccc(-n2c(=O)c3c(c4cc(OC)ccc4n3C)n(Cc3c(F)cccc3Cl)c2=O)cc1	111	113
CCCC(=O)Nc1ccc2nc(SCCOc3ccccc3)sc2c1	99	104
COc1ccc(CCNc2ncnc3c2nnn3C)cc1	111	93
Cn1c(=O)n(C)c2cc(N3CCOCC3)c(NS(=O)(=O)c3cccc(C#N)c3)cc21	99	90
COc1ccc(S(=O)(=O)c2cn(C)c3cc(N4CCOCC4)c(F)cc3c2=O)cc1	111	108
Cc1cccc(CCNC(=O)c2c[nH]c3ccc(S(=O)(=O)Nc4ccccc4F)cc3c2=O)c1	105	98
Clc1cccc(-c2nnc(CN3CCN(c4ccccn4)CC3)o2)c1	104	107
Cc1cccc(NC(=O)CC2C(=O)OCCN2Cc2ccccc2)c1 (stereo not given)	103	100
CCCCOc1ccc(C(=O)Nc2ccc(-c3nc4ccccc4s3)cc2C)cc1	102	104
Cc1ccc(NC(=O)C2CCN(S(=O)(=O)c3ccc4[nH]c(=O)ccc4c3)CC2)cc1C	113	112
CCOC(=O)c1c(C)[nH]c(C)c1S(=O)(=O)NCC(=O)NCc1cccc(C)c1	111	98
CCOc1ccc(-c2cc(NC(=O)Nc3ccccc3Cl)c(C(=O)OC)s2)cc1	107	112
COc1ccccc1C(=O)Nc1cccc(C(=O)OCc2cc(=O)n3ccsc3n2)c1	106	110
COc1ccc(C)cc1NC(=O)Cn1c(=O)oc2cc(S(=O)(=O)NCc3ccccc3)ccc21	104	100
Cc1ccc(C)c(NC(=O)C2CCCN(S(=O)(=O)c3cccc4nsnc34)C2)c1 (stereo not given)	109	114
Cc1ccc(C(=O)c2oc3ccccc3c2NC(=O)COc2ccc(C(C)(C)C)cc2)cc1	111	115
O=C(C1CCC(Cn2c(=O)c3sccc3n(Cc3ccccc3)c2=O)CC1)N1CCOCC1 (stereo not given)	102	105
Cc1cccc(OC(=O)c2snnc2C)c1C	99	100
CCN(CC)C(=O)CSc1nc2cc3c(cc2c(=O)n1CCCC(=O)NCc1ccc2c(c1)OCO2)OCO3	106	101
Cc1cc(C)cc(NC(=O)C2CCN(S(=O)(=O)c3cccc4nonc34)CC2)c1	114	114

Part of the list above in order of molecular weight, ascending:
compound	Polio RdRp inh	Polio RdRp inh intensity
CCOC(=O)c1c(C)[nH]c(C)c1S(=O)(=O)NCC(=O)NCc1cccc(C)c1	111	98
CCCCOc1ccc(C(=O)Nc2ccc(-c3nc4ccccc4s3)cc2C)cc1	102	104
CCOc1ccc(-c2cc(NC(=O)Nc3ccccc3Cl)c(C(=O)OC)s2)cc1	107	112
COc1ccccc1C(=O)Nc1cccc(C(=O)OCc2cc(=O)n3ccsc3n2)c1	106	110
Cc1ccc(NC(=O)C2CCN(S(=O)(=O)c3ccc4[nH]c(=O)ccc4c3)CC2)cc1C	113	112
Cc1ccc(C(=O)c2oc3ccccc3c2NC(=O)COc2ccc(C(C)(C)C)cc2)cc1	111	115

Carrying on.
compound	Polio RdRp inh	Polio RdRp inh intensity
CCCN1CCN(c2ncnc3sc(C(=O)Nc4ccc(OC(F)(F)F)cc4)c(C)c23)CC1	112	112
O=C(Cn1c(=O)n(Cc2ccc(C(=O)NCc3ccc4c(c3)OCO4)cc2)c(=O)c2ccccc21)Nc1cccc(Cl)c1	105	104
COc1ccc(N(Cc2cccs2)C(=O)c2ccc(C(C)(C)C)cc2)cc1	103	106
Cc1cc(C)cc(Nc2cc(C(=O)NCCCN(Cc3ccccc3)C(C)C)c3ccccc3n2)c1	109	105
COc1ccc(OC)c(NC(=O)c2c(C)oc3ncnc(N4CCOCC4)c23)c1	104	85
COc1ccc2cc(-c3nc(Cl)c4c5c(sc4n3)CCCC5)c(=O)oc2c1	115	133
CCOc1ccccc1CNC(=O)c1ccc(-c2nc(CSc3ccc(C)cc3)c(C)o2)cc1	108	107
Cc1cc(C)cc(OCC(=O)Nc2ccc(S(=O)(=O)Nc3onc(C)c3C)cc2)c1	98	98
O=C(Nc1ccc(OC(F)(F)F)cc1)C1CCN(S(=O)(=O)c2cccs2)CC1	102	102
COc1ccc(CCNC(=O)Cn2cc(S(=O)(=O)Cc3cccc(Cl)c3)c3ccccc32)cc1OC	115	107
COc1ccc(S(=O)(=O)c2c(Nc3c(C)cccc3C)sc(C(=O)c3ccc(F)cc3)c2N)cc1	103	97
CCN(C(=O)c1cc2c(s1)-c1ccccc1OC2)c1cccc(C(F)(F)F)c1	101	107
COc1ccc(NC(=O)Cn2c(=O)n(Cc3ccccc3)c(=O)c3sc4ccccc4c32)cc1	104	108
COc1ccc(S(=O)(=O)n2nc(C)c(S(=O)(=O)N3CCCCCC3)c2C)cc1OC	106	99
COCCCNC(=O)c1ccc(Cn2c(=O)c3ccccc3n(CC(N)=O)c2=O)cc1	105	106

Whole records from above. Values in the order: Polio RdRp inh | Polio RdRp inh intensity
`COCCCNC(=O)c1ccc(Cn2c(=O)c3ccccc3n(CC(N)=O)c2=O)cc1` is listed with 105 | 106
`COc1ccc(S(=O)(=O)c2c(Nc3c(C)cccc3C)sc(C(=O)c3ccc(F)cc3)c2N)cc1` is listed with 103 | 97
`COc1ccc(S(=O)(=O)n2nc(C)c(S(=O)(=O)N3CCCCCC3)c2C)cc1OC` is listed with 106 | 99
`O=C(Nc1ccc(OC(F)(F)F)cc1)C1CCN(S(=O)(=O)c2cccs2)CC1` is listed with 102 | 102
`Cc1cc(C)cc(OCC(=O)Nc2ccc(S(=O)(=O)Nc3onc(C)c3C)cc2)c1` is listed with 98 | 98

Additional results follow:
compound	Polio RdRp inh	Polio RdRp inh intensity
COc1ccc(OC)c(CCNC(=O)Cn2ccc3cc(S(=O)(=O)N4CCCCC4)ccc32)c1	112	109
COc1cccc(C(=O)Nc2cc(-c3cn4cccnc4n3)ccc2C)c1OC	101	110
Cc1ccc2c(=O)cc(C(=O)Nc3sc4c(c3C(=O)NCC3CCCO3)CCC4)oc2c1 (stereo not given)	105	100
Cc1ccc(Cl)cc1NC(=O)C(C)n1nnc2sc(-c3ccccc3)cc2c1=O (stereo not given)	65*	65*
Cc1cc(Nc2cccc(Cl)c2)nc2ccc(NC(=O)COc3ccc(Cl)cc3)cc12	109	108
CCc1nc2nc(C)cc(Nc3cc(Cl)ccc3C)n2n1	101	105
COc1cccc(-n2nnc3c(sc4nc(C)cc(C)c43)c2=O)c1	105	95
CC(=O)c1cccc(NC(=O)c2nc(-c3ccccc3)n(-c3cccc(C)c3)n2)c1	107	111
COc1ccc(CNC(=O)c2cccc(NC(=O)N3CCSc4ncccc43)c2)cc1	103	105
COc1ccc(NC(=O)c2ccc3c(=O)n4nc(Nc5ccccc5C)sc4nc3c2)cc1	105	97
CCOC(=O)CCCN1C(=O)CCn2nc(-c3cn(C)c4ccccc34)cc21	109	111
COc1ccc(N2Cc3cccc(C(=O)Nc4ccc(C(C)C)cc4)c3C2=O)cc1	106	106
Cc1ccc(C2c3[nH]c4ccccc4c3CCN2C(=O)c2ccc(N(C)C)cc2)cc1 (stereo not given)	110	105
Cc1cn2c(=O)cc(COC(=O)c3ccc(NC(=O)COc4ccccc4F)cc3)nc2s1	114	113
CC(C)(C)OC(=O)N1CCC(c2c(C(=O)NCc3cccs3)cnn2-c2cccc(F)c2)CC1	107	108
COc1ccc(CCC(=O)NC2CC(=O)N(c3ccccc3)C2)cc1 (stereo not given)	118	110
CCOc1ccc2oc(=O)cc(CN3CCN(C(=O)c4ccc(F)cc4)CC3)c2c1	100	100
CCc1ccccc1NC(=O)Cn1cc(C(=O)c2ccc(Cl)cc2)c(=O)c2ccc(C)nc21	105	108
CCC(CC)C(=O)Nc1nc2c(s1)CC(C)CC2 (stereo not given)	109	108
CC(=O)c1ccc(NS(=O)(=O)c2ccc3[nH]c4c(c3c2)CCCC4)cc1	109	110
O=C(CCc1cn(Cc2ccccc2Cl)c2ccccc12)NC1CCCCC1	109	104
CCCS(=O)(=O)N1CCC(n2c(C(F)(F)F)nc3cccnc32)CC1	103	102
Cc1cc(C)c(NC(=O)Cn2c(=O)n(Cc3ccccc3)c(=O)c3c(C)c(C(=O)N(C)C)sc32)c(C)c1	109	102
CCOc1ccc(OC(=O)c2sc3ncn(Cc4cccc(F)c4)c(=O)c3c2C)cc1	107	114
COc1ccc(-c2noc(-c3ccc(N4CCCC4)c([N+](=O)[O-])c3)n2)cc1OC	114	120
Cc1ccc(C(=O)Nc2ccccc2C(=O)O)cc1S(=O)(=O)N1CCCCCC1	103	108
COc1cc(C(=O)NCC(c2ccco2)S(=O)(=O)c2ccccc2)cc(OC)c1OC (stereo not given)	110	114
CCc1ccc(CNC(=O)c2cnc3sc(N(CC)CC)nn3c2=O)cc1	99	102
CCCCn1nc(NC(=O)c2cccc(Cl)c2)c2cc3cccc(C)c3nc21	120	109
COc1cc2nc(NC(=O)c3ccc(S(=O)(=O)N4CCOCC4)cc3)sc2cc1OC	99	100

Reformatted with two lines to a compound: entries from further up
Results follow in this order: Polio RdRp inh | Polio RdRp inh intensity
COc1ccc(C)cc1NC(=O)Cn1c(=O)oc2cc(S(=O)(=O)NCc3ccccc3)ccc21
  104 | 100
Cc1ccc(C)c(NC(=O)C2CCCN(S(=O)(=O)c3cccc4nsnc34)C2)c1 (stereo not given)
  109 | 114
Cc1ccc(C(=O)c2oc3ccccc3c2NC(=O)COc2ccc(C(C)(C)C)cc2)cc1
  111 | 115

The list goes on:
compound	Polio RdRp inh	Polio RdRp inh intensity
Cc1nn(-c2ccccc2)c(-n2cccc2)c1C(=O)NCCCN1CCN(c2ccccc2F)CC1	107	106
Cc1cccc(C(C)C)c1NC(=O)c1ccc2c(c1)CCN2S(C)(=O)=O	110	110
COc1ccc(Cl)cc1NC(=O)CSc1cn(CC(=O)N2CCCCC2)c2ccccc12	119	121
Cc1ccc(CCNC(=O)c2cc(-c3ccccc3)n[nH]2)cc1	116	117
CC(=O)c1cccc(NC(=O)c2cnn(-c3cccc(C)c3)c2-n2cccc2)c1	111	100
CC(=O)c1cccc(N2C(=O)CN(S(C)(=O)=O)CC2(C)C(=O)NC2CCCC2)c1 (stereo not given)	113	108
CC(=O)Nc1ccc(S(=O)(=O)NCC2CCC(C(=O)NCCCOC(C)C)CC2)cc1 (stereo not given)	110	110
CCOC(=O)c1ccc(NC(=O)CC2C(=O)OCCN2CC)cc1 (stereo not given)	104	108
CCc1ccc(CNC(=O)C2CCN(c3nn4cc(-c5ccc(F)cc5)nc4s3)CC2)cc1	109	111
COc1ccc(NC(=O)c2oc3ccc(S(=O)(=O)N4CCOCC4)cc3c2C)c(OC)c1	104	93
COC(=O)c1cc(Cl)c(NC(=O)/C=C/c2ccc(Cl)cc2Cl)cc1OC	104	110
CN(C)c1ccc(-c2nc3ccccn3c2Nc2ccc3c(c2)OCCO3)cc1	109	109
Cc1cccc(Nc2nc(-c3ccccc3)nc3ccccc23)c1	103	104
CCOC(=O)c1c(C)sc(-c2c(-c3cc(C)ccc3C)[nH]c3c2c(=O)n(C)c(=O)n3C)c1O	153	167
Cc1cccc(NC(=O)Cn2cnc(S(=O)(=O)N3CCCC3)c2)c1C	102	108
COc1cccc(-c2nn(C)c3sc(C(=O)NCCc4ccc(Cl)cc4)cc23)c1	107	110
COc1ccc(CN2C(=O)N(c3ccc(F)cc3)C(=O)C2CC(=O)Nc2cc(OC)cc(OC)c2)cc1 (stereo not given)	104	106
CCCCCSc1nc2sc3c(c2c(=O)n1-c1ccccc1)CCN(C(C)=O)C3	108	109
CSc1cccc(Nc2cc(C(=O)NCCCN(C)c3ccccc3)c3ccccc3n2)c1	107	109
Cc1ccc2ncc(C(=O)c3ccc(C)c(C)c3)c(S(=O)(=O)c3ccccc3)c2c1	107	106
CCOC(=O)c1cc(-c2ccc(F)cc2)n(CCC(=O)Nc2nc3cc(C)c(C)cc3s2)c1C	108	116
Cc1ccc(Nc2c(-c3ccc(C)o3)nc3cccc(C)n23)cc1	110	114
COc1ccc(CN(Cc2ccco2)C(=O)COc2ccc(Cl)cc2C)cc1	107	111
COc1ccc(N2CCN(C(=O)c3ccc4c(=O)n(CCc5ccc(OC)c(OC)c5)c(=O)[nH]c4c3)CC2)cc1	110	101
CCOc1ccc(NC(=O)c2c(NCc3ccc(C)o3)sc3c2CCC(C)C3)cc1 (stereo not given)	103	103
COC(=O)c1ccc(Cl)cc1NC(=O)NC(C)c1c(-n2cccc2)sc(C)c1C (stereo not given)	110	114
CCOc1ccc(CNC(=O)Cn2ncc3c(=O)oc4ccc(C)cc4c32)cc1	104	104
Cc1ccccc1C(=O)NCCc1csc(-c2ccc(C(F)(F)F)cc2)n1	111	114
CCCc1nnc(NC(=O)c2nc(SCC)ncc2Cl)s1	107	104
